AmpC inh no det: blocks E. coli AmpC beta-lactamase in absence of detergent; P00811; AmpC nitrocefin hydrolysis, absorbance 480 nm, no detergent; potencies from a single point are estimates; Potency, µM (highest dose often 28.7 µM), without a hit: top-dose activity change, negative = inhibition; actives 1.8% (n = 71,000); active = falling curve, for most hits resting on a single point; inconclusive = weak or doubtful change; inactive = flat or rising curve; note: % of control where 0% means no effect; about half of the hits show no inhibition at the top dose; a quarter of the inactives give rising signals
Target sequence (P00811 whole entry, looked up): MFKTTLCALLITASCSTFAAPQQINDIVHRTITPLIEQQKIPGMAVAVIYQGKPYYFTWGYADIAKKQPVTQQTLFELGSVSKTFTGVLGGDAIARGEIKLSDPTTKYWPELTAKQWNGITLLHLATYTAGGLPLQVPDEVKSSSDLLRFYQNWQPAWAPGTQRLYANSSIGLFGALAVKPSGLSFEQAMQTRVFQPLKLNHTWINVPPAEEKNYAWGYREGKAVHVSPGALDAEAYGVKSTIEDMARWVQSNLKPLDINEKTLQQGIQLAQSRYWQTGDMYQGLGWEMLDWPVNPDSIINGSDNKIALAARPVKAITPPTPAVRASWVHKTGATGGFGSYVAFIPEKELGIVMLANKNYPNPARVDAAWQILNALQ
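AmpC in 20 mM phosphate buffer pH 7.0 was preincubated 15 min at room temperature with compounds. Nitrocefin (800 uM stock) was then added and hydrolysis followed at 480 nm every 20 s for 4 min.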
Starred values were filed as active, the others as inactive; ? = inconclusive; [ ] = another dose, or the depositor's remark. Potency is the fitted concentration of half-maximal effect. This is a subset; rates above refer to the full screens.

SMILES	AmpC inh no det
CCOC(=O)c1ccc2c(c1)N(CC(=O)N1CCCC1)C(=O)C(C)(C)O2	41%
N[C@H](C(=O)O)C1[C@H](C(=O)O)[C@H]1C(=O)O (stereo partly specified)	3%
COCCSc1nc2c(c(=O)[nH]c(=O)n2C)n1Cc1cccc(C)c1	17%
C=CCn1c(SCC(=O)Nc2ccc3c(c2)OCO3)nnc1-c1ccccc1OC	12%
CCCc1nnc(SCC(=O)N2CCOCC2)n1Cc1ccco1	5%
COc1cccc(C=NC=Nc2cccc(OC)c2)c1	43%
CCOC(=O)NC(CC(=O)O)c1ccc(OC)cc1 (stereo unspecified)	-12%
C[C@@H](COc1ccccc1)N(CCCl)Cc1ccccc1	4%[12.8 µM]
Cc1ccccc1N1C(=O)C(Cl)=C(N2CCCCCC2)C1=O	-6%
Cc1cccc(N(C)C(=O)CCS(=O)(=O)c2cccc3nonc23)c1	4%
CCOC(=O)C1=C(O)C(=O)N(c2ccc(S(N)(=O)=O)cc2)C1c1ccc(OC)cc1 (stereo unspecified)	-12%
CN(C(=O)Cc1ccc(Cl)c(Cl)c1)[C@H](CN1CCCC1)c1ccccc1	71%
C[C@@H](CC(=O)O)[C@@H](N)C(=O)O	27%
COc1ccc(N(CC(=O)N2CCc3ccccc32)S(=O)(=O)c2c(C)n[nH]c2C)cc1	73%
Fc1ccccc1C(c1nnnn1Cc1ccc2c(c1)OCO2)N1CCN(Cc2ccco2)CC1 (stereo unspecified)	74%
O[C@H](c1cc(C(F)(F)F)nc2c(C(F)(F)F)cccc12)[C@H]1CCCCN1	-5%[12.8 µM]
COc1cccc2cc(C(=O)C3=C(O)C(=O)N(CCCN(C)C)C3c3ccncc3)oc12 (stereo unspecified)	-10%
O=C(O)CSSCC(=O)O	0%[5.75 µM]
Cc1[nH]c(=O)[nH]c(=O)c1S(=O)(=O)NCC12CC3CC(CC(C3)C1)C2	-4%
COc1cccc(-c2cc(C(=O)N3CCCCC3C)no2)c1 (stereo unspecified)	21%
c1ccc(-c2noc(-c3cccc4ccccc34)n2)nc1	17%
Nc1ccccc1NC(=O)c1ccccc1N	-4%
O=C(O)CSc1nnc(CNc2cccc(C(F)(F)F)c2)n1Cc1ccco1	16%
O=C(CSc1nnc(-c2cccc(S(=O)(=O)N3CCCCC3)c2)o1)c1ccc[nH]1	-9%
Cc1c(NC(=O)C2(c3ccccc3)CCOCC2)c(=O)n(-c2ccccc2)n1C	3%
CCOc1ccccc1Nc1ncccc1C(=O)N1CCCC1	33%
N=c1n(-c2ccccc2)c(O)cc(=O)n1-c1ccccc1	-11%
CCOc1ccc(-n2c(Cc3cc(=O)[nH]c(=O)[nH]3)nnc2SCC)cc1	3%
CCCCN(CCCC)S(=O)(=O)c1ccc(OC)c2ncccc12	100%
O=C1CC(c2ccccc2)n2nc(NC(=O)c3ccccn3)nc2N1 (stereo unspecified)	-1%
CN1CCN(C(=O)c2ccc(CN3CCOCC3)cc2)CC1	-5%
COc1ccc(Cc2nnc(Nc3ccc(C)cc3C)[nH]c2=O)cc1	-16%
Cn1c(=O)c2c(SCc3cccc(C(F)(F)F)c3)nc(-c3ccco3)nc2n(C)c1=O	33%
O=c1c(-c2ccccc2)nc2cnc(N3CCNCC3)nc2n1C1CC1	45%
O=C(Nc1ccccn1)NC12CC3CC(CC(C3)C1)C2	-12%
COc1ccc(N2CCN(/C(=N\S(=O)(=O)c3ccccc3)Nc3nc(C)cc(C)n3)CC2)cc1	79%
O=S(=O)(c1ccccc1)c1ccc(NCc2ccco2)cc1	-23%
O=C1C2C3C=CC(C3)C2C(=O)N1CC1CCCO1 (stereo unspecified)	-3%
COc1cccc2cc(C(=O)N3CCN(C/C=C/c4ccccc4)CC3)c(=O)oc12	97%
O=C(NCCCN1CCOCC1)NC12CC3CC(CC(C3)C1)C2	11%
Cn1cccc1C(=O)OCC(=O)Nc1ccc2c(c1)CCC2	7%
N#C/C=C1\n2c(nc3ccccc32)OC12CCCCC2	-4%
CCOc1ccc(NC(=O)c2oc3ccccc3c2NC(=O)C2CC2)cc1	9%
COC(=O)[C@@]1(Cc2ccc(F)cc2)[C@@H]2C(=CC(=O)[C@H]2CC(=O)C(=O)N2CCCC2)CN1C(=O)c1ccccc1	154%
CNC(=O)c1ccccc1	-12%
Cc1ccc(C)c(OCC(O)CN2C(C)CCCC2C)c1 (stereo unspecified)	-10%
CC1(C)CC(=O)C=C(N2CCN(C3=CC(=O)CC(C)(C)C3)CC2)C1	-2%
CCOC(=O)c1c(C)[nH]c(C)c1C(=O)CN1C(=O)NC(CC(C)C)C1=O (stereo unspecified)	2%
CCC(=O)N1CCc2cc(S(=O)(=O)CCC(=O)NCc3cccs3)ccc21	-6%
N#Cc1ccccc1-c1ccc2ncnc(NCc3ccccc3)c2c1	-14%
CCOC(=O)N1CCN(C(=O)c2ccc3c(=O)n(Cc4ccc(Cl)cc4)c(=S)[nH]c3c2)CC1	85%
CCOC(=O)Cc1nnc(NC(=O)COc2ccc(C)cc2)s1	-14%
C[C@@H](C(=O)Nc1ccc2ccccc2c1)[C@@H]1C[C@@]1(C)[C@@H](N)c1ccccc1	43%
Cc1oc2ccc(OCc3ccc(F)cc3)cc2c1C(=O)O	-22%
CCC(=O)Nc1ccccc1Oc1ccccc1	-2%
CCOC(=O)C1CCN(C(=O)c2ccc(Cl)c(S(=O)(=O)N3CCOCC3)c2)CC1	54%
O=C(NCC1CCCO1)c1ccc(S(=O)(=O)N2CCCCC2)cc1 (stereo unspecified)	5%
CSc1ccccc1NC(=O)c1cccnc1	-14%
COc1ccc(-c2cc(C(F)(F)F)nc(SCC(=O)Nc3cc(C)on3)n2)cc1OC	78%
Cc1ccc(S(=O)(=O)N2CCCN(S(=O)(=O)c3ccc4c(c3)OCCO4)CC2)cc1	7%

Additional compounds follow.
SMILES	AmpC inh no det
COc1ccccc1S(=O)(=O)Cc1ccc(C(=O)N2CCN(c3ccc(C)cc3)C(C)C2)o1 (stereo unspecified)	151%
O=C(CN1CCN(C(=O)c2ccco2)CC1)Nc1ccccc1-c1ccccc1	115%
COCCn1c(=S)[nH]c2cc(C(=O)N3CCN(c4ccccc4OC)CC3)ccc2c1=O	86%
Cc1nnc(Nc2ccc(C(=O)N3CCOCC3)cc2)c2ccccc12	-13%
COC(=O)COc1ccc(S(=O)(=O)Nc2ccc(C(N)=O)cc2)cc1Cl	-4%
COC(=O)c1[nH]c2ccccc2c1NC(=O)CCN1CCSCC1	1%
COc1ccc(Nc2ncnc3c2cnn3Cc2ccccc2)cc1OC	59%
CCOCc1nnc(NC(=O)c2cccs2)s1	-5%
CCSc1nc2c(c(=O)[nH]c(=O)n2C)n1Cc1ccc(Cl)cc1	21%
Cc1cc2c(c(=O)n1CCN(C)C)C(c1ccccc1Br)C(C#N)=C(N)O2 (stereo unspecified)	3%
O=c1cnc2cnc(Oc3ccccc3)nc2n1Cc1ccc(F)cc1	87%
O=c1cc(N2CCN(c3cccc(Cl)c3)CC2)[nH]c(=O)n1C1CCCCC1	?
CCn1c2ccccc2c2cc(NC(=O)COC(=O)C3CCC(=O)N3)ccc21 (stereo unspecified)	143%
Cc1cc2nc(-c3ccco3)cc(C(F)(F)F)n2n1	11%
Cn1c(N)c(C(=O)COC(=O)c2ccco2)c(=O)n(C)c1=O	11%
CCOC(=O)C1CCCN(C(=O)CNS(=O)(=O)c2ccc(Br)s2)C1 (stereo unspecified)	12%
O=C(CN1C(=O)CCS(=O)(=O)c2ccccc21)NCc1ccccc1	2%
Cc1ccc(S(=O)(=O)NCC(=O)N(CC(=O)NCC2CCCO2)C2CCCC2)cc1 (stereo unspecified)	66%
CCOc1ccc(C(=O)Nc2nnc(C)s2)cc1OCC	7%
COc1ccc(S(=O)(=O)C(C#N)c2nc3ccccc3nc2N2CCCCC2)cc1 (stereo unspecified)	0%
O=P(c1cccs1)(c1cccs1)c1cccs1	1%
Cc1c(-c2ccccc2)oc2c(C(=O)OCCN3CCCCC3)cccc2c1=O	15%[12.8 µM]
CNc1nc(SCc2ccccc2)nc(N2CCOCC2)n1	36%
C/C(Cl)=C/Cn1c(SC(C)C)nc2c1c(=O)[nH]c(=O)n2C	15%
Cc1cc(C)c(C#N)c(SC2CCCCC2=O)n1 (stereo unspecified)	3%
COc1ccccc1Nc1nc2ccccc2[nH]1	-21%
COc1ccc2c(c1)c(=O)oc1cc(OCC(=O)N3CCC(C)CC3)ccc12	74%
COCCn1c(SCC(=O)c2ccccc2)nc2c(c1=O)SC(C)C2 (stereo unspecified)	20%
O=C(NC1CC1)C1CCCN1S(=O)(=O)c1ccc2ccccc2c1 (stereo unspecified)	26%
CCOC(=O)N1CCN(c2c(NCCc3ccc(OCC)c(OCC)c3)c(=O)c2=O)CC1	24%
CC1(C)Cc2nc(N3CCOCC3)c(C#N)cc2CO1	-3%
CCOC(=O)CN1C(=O)C(O)(CC(=O)c2ccco2)c2ccccc21 (stereo unspecified)	14%
O=C(/C=C\c1ccc(O)cc1)c1ccc(O)cc1O	-18%
COc1ccc(S(=O)(=O)N2CCCC(C(=O)NCc3ccccn3)C2)cc1Cl (stereo unspecified)	70%
O=c1c[n+](CC[n+]2cc(=O)o[nH]2)[nH]o1	8%[5.75 µM]
C=CC(=O)OCC(CO)(COC(=O)C=C)COC(=O)C=C	61%
c1ccc(-c2nnc(SCc3nc4ccccc4[nH]3)o2)cc1	-17%
CCCCSCCCNC(=O)Nc1cccc(OC)c1	-18%
COC(=O)c1ccccc1NC(=O)CSc1nnc(-c2cccc(NC(C)=O)c2)n1C	36%
CCOC(=O)c1cnc(C(C)(C)C)[nH]c1=O	3%
Cc1cnc(CNc2nc(-c3ccc(C(=O)N(C)C)cc3)nc3ccccc23)cn1	65%
CC1(C)CC(=O)C=C(N2CCNCC2)C1	-8%
Cn1nnnc1SCC(=O)Nc1ccccc1-c1ccccc1	5%
CCOc1cc(C#N)c(NC(=O)c2ccnn2C)cc1OCC	3%
CC1=C(C(=O)Nc2ccccn2)C(c2ccc(Br)cc2)n2ncnc2N1 (stereo unspecified)	5%
CCOC(=O)C1CCCN(C(=O)c2cnn3c(C(F)F)cc(-c4ccc(C)cc4)nc23)C1 (stereo unspecified)	111%
N#Cc1c2n(c3c(=O)[nH]cnc13)CCCC2	-2%
O=C(O)c1ccc2nc(C(F)(F)F)[nH]c2c1	-10%
O=C(O)[C@@H]1[C@@H]2C[C@H]([C@@H](Br)[C@H]2N2C(=O)CCC2=O)[C@@H]1C(=O)O	-8%[5.75 µM]
CCOC(=O)C(CC)Sc1nc2c(c(=O)[nH]c(=O)n2C)n1CCc1ccccc1 (stereo unspecified)	49%
CCOC(=O)CC(NC(=O)c1ccco1)c1ccccc1Cl (stereo unspecified)	9%
CCCn1c(SCC(=O)c2ccc3c(c2)OCCO3)nnc1C(C)C	46%
CC(=O)N1CCc2cc(S(=O)(=O)CCC(=O)Nc3cccc(F)c3)ccc21	-16%
O=[n+]1cc(-c2cc3ccccc3o2)n([O-])c2c1CCCC2	4%
O=C(CCSc1nnnn1-c1ccccc1)N1CCOCC1	1%
O=C(CC1Oc2ccccc2NC1=O)NCCCN1CCN(C2CCCCC2)CC1 (stereo unspecified)	4µM*[single pt active]
CCCCn1c(N)c(N(CCOC)C(=O)CSc2nc3ccc(C)cc3[nH]2)c(=O)[nH]c1=O	0%
COc1cccc(Cn2c(=O)c(C)nc3cnc(Nc4cccc(OC)c4)nc32)c1	19%
COc1ccc(C(=O)NCCc2nnc(SCC(=O)Nc3ccccc3)n2C)cc1	29%
CC(CC(=O)O)CC1=NS(=O)(=O)c2ccccc2N1 (stereo unspecified)	-12%

16 entries from above, sorted by SMILES length, low to high:
SMILES	AmpC inh no det
CC1(C)CC(=O)C=C(N2CCNCC2)C1	-8%
N#Cc1c2n(c3c(=O)[nH]cnc13)CCCC2	-2%
O=C(O)c1ccc2nc(C(F)(F)F)[nH]c2c1	-10%
Cn1nnnc1SCC(=O)Nc1ccccc1-c1ccccc1	5%
CCOC(=O)CC(NC(=O)c1ccco1)c1ccccc1Cl (stereo unspecified)	9%
CCCn1c(SCC(=O)c2ccc3c(c2)OCCO3)nnc1C(C)C	46%
O=[n+]1cc(-c2cc3ccccc3o2)n([O-])c2c1CCCC2	4%
O=C(CC1Oc2ccccc2NC1=O)NCCCN1CCN(C2CCCCC2)CC1 (stereo unspecified)	4µM*[single pt active]
CC1=C(C(=O)Nc2ccccn2)C(c2ccc(Br)cc2)n2ncnc2N1 (stereo unspecified)	5%
COc1ccc(C(=O)NCCc2nnc(SCC(=O)Nc3ccccc3)n2C)cc1	29%
CC(=O)N1CCc2cc(S(=O)(=O)CCC(=O)Nc3cccc(F)c3)ccc21	-16%
Cc1cnc(CNc2nc(-c3ccc(C(=O)N(C)C)cc3)nc3ccccc23)cn1	65%
COC(=O)c1ccccc1NC(=O)CSc1nnc(-c2cccc(NC(C)=O)c2)n1C	36%
CCOC(=O)C1CCCN(C(=O)c2cnn3c(C(F)F)cc(-c4ccc(C)cc4)nc23)C1 (stereo unspecified)	111%
CCCCn1c(N)c(N(CCOC)C(=O)CSc2nc3ccc(C)cc3[nH]2)c(=O)[nH]c1=O	0%
O=C(O)[C@@H]1[C@@H]2C[C@H]([C@@H](Br)[C@H]2N2C(=O)CCC2=O)[C@@H]1C(=O)O	-8%[5.75 µM]

Further results follow.
SMILES	AmpC inh no det
CCOc1ccc(NC(=O)CSc2nnc(COc3c(C)cccc3C)o2)cc1	0%
CCN(CC)S(=O)(=O)c1cccc(-c2nnc(SCCOc3ccccc3C)o2)c1	18%
CCCc1cc(=O)oc2cc(C)c3c(C)coc3c12	7%
O=C(CC1(O)C(=O)N(CCc2ccccc2)c2ccccc21)c1ccco1 (stereo unspecified)	19%
CCSc1nsc(SCC)c1C(N)=O	-2%
Cc1cccc2cc(CN(CC3CCCO3)C(=O)c3cnccn3)c(=O)[nH]c12 (stereo unspecified)	25%
Nc1nc(C(=O)N2CCOCC2)nn1S(=O)(=O)c1ccc(Cl)cc1	-18%

Random excerpt: 2 compounds from above
SMILES	AmpC inh no det
CCOC(=O)C1CCCN(C(=O)CNS(=O)(=O)c2ccc(Br)s2)C1 (stereo unspecified)	12%
O=C(CCSc1nnnn1-c1ccccc1)N1CCOCC1	1%
